From PubChem
MgrA-DNA mod = S. aureus MgrA activity modulators, primary screen, biochemical, S. aureus Newman, fluorescence polarization; MgrA-DNA binding; inhibition, %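 (about 10 µg/mL by stock and volumes)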; 84,000 compounds, 0.13% hits;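 active = above 50% in either of two replicates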;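 note: 0% = protein plus DNA without compound and 100% = DNA alone without protein; higher means less MgrA bound to DNA so lower polarization; one replicate is shown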
Sa helicase inh = inhibitors of S. aureus replicative helicase, primary screen, biochemical, fluorescence unwinding readout; replicative DNA helicase (DnaC/DnaB), Staphylococcus aureus; purified S. aureus helicase, fluorescence unwinding assay; about half of the hits fall short of the stated cut; inhibition, %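 (tested at about 80 µM)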; 120,000 compounds, 0.05% hits; AID 485395, 2010;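 active = both duplicates at 50% or more, or one of them with a favoured structure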;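 note: 0% = mean of negative control wells and 100% = mean of positive control wells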
* hit, by the source's call; nt = not tested or not shown.

SMILES | MgrA-DNA mod | Sa helicase inh
COC(=O)c1sccc1-c1ccc(/C=C(\C#N)S(C)(=O)=O)o1 | 0.1 | nt
CCN1CCCC1CNC(=O)c1nn(C)c2c1CSc1ccccc1-2 (stereo unspecified) | nt | -19
COC(=O)c1ccc(CN2C(=O)NC(Cc3ccccc3)(Cc3ccccc3)C2=O)o1 | nt | 4
CC(C)(C)SCCC(=O)N1CCN(c2ncc(C(F)(F)F)cc2Cl)CC1 | -3.0 | nt
CC1(C)CC(=O)C2=C(C1)Oc1ccccc1C2CC(=O)c1cccs1 (stereo unspecified) | 0.1 | 6
CC1(C)C(=O)Nc2ccccc2N1C(=O)COC(=O)c1ccccn1 | nt | -5
Cc1cc(C)n(-c2ccc(C(=O)NCCc3c[nH]c4ccccc34)cc2)n1 | 0.3 | -21
Cc1ccccc1Nc1nnc(SCC(=O)NC(C)(C#N)C(C)C)s1 (stereo unspecified) | nt | 35
CC(=O)Nc1ccc(I)cn1 | 0.9 | nt
N#Cc1ccccc1OCC(=O)NC1CC1 | nt | -14
O=c1cc(CSc2nnc(-c3ccccc3)n2Cc2ccc3c(c2)OCO3)nc2sccn12 | nt | -11
CN(C)/C=N/c1c(C#N)cnn1-c1ccccc1 | 4.9 | 20
CCCCC1CC(CSc2ncn[nH]2)OC1=O (stereo unspecified) | nt | 10
N/C(CSc1ccccn1)=N\O | 0.0 | nt
O=C1c2ccccc2C(=O)N1CC(O)CN1CCOCC1 (stereo unspecified) | 1.8 | -3
Cc1ccc(S(=O)(=O)N2CCN(C(=O)COC(=O)c3ccc(O)cc3)CC2)cc1 | nt | 14
N#Cc1nc(-c2ccccc2)oc1NCCCN1CCOCC1 | -7.7 | 6
CC1(C)CC(=O)C2=C(C1)N(c1c(F)cccc1F)C(N)=C(C#N)C2c1ccsc1 (stereo unspecified) | 1.5 | 7
CC(C)n1ncc2cc(N)cnc21 | nt | -13
COCC(C)n1c(C)cc(C(=O)CSc2ncccn2)c1C (stereo unspecified) | nt | -9
CC(C)(C)OC(=O)N1CCC(C(=O)O)CC1 | nt | 9
CCOC(=O)C1CCN(c2nnnn2-c2ccccc2)CC1 | nt | -20
CCS(=O)(=O)Nc1ccc(C2=NN(S(=O)(=O)CC)C(c3ccccc3)C2)cc1 (stereo unspecified) | nt | -17
CSc1c(-c2ccc(Cl)cc2)[nH]c2ccccc12 | -0.4 | nt
COc1cccc2c(=O)n(CC(=O)NCc3ccccc3)ccc12 | nt | 7
S=c1[nH]nc(Cn2nnc3ccccc32)o1 | -3.5 | nt
COC(=O)c1c(C)oc(C)c1S(=O)(=O)N(Cc1ccccc1)C(C)C | -1.9 | nt
c1ccc(-c2cnnc(N3CCCC3)n2)cc1 | nt | 15
COC(=O)c1cc2sc(Cl)cc2n1CC(=O)Nc1ccc(C)c(C)c1 | 1.0 | -10
O=C1CCCc2c1nc(-c1ccccc1)n2O | 0.9 | nt
O=c1oc2ccccc2n1CCn1c2ccccc2c2nc3ccccc3nc21 | nt | -23
CCn1cc(/C=N/O)c(C)n1 | nt | 10
O=C(CSc1nc2ccccc2n1-c1ccccc1)c1ccc[nH]1 | nt | -2
Cc1cc(C)n(CCCN)n1 | nt | -19
O=C(O)c1ccccc1S(=O)c1ccc(Cl)cc1 (stereo unspecified) | -2.7 | nt
O=C(OC[C@@H]1CCCN2CCCCC12)c1ccccc1 (stereo partly specified) | 2.2 | 9
CCC(CO)Nc1nc(C)nc2sc3c(c12)CCCC3 (stereo unspecified) | nt | -9
O=C(Nc1nc2ccccc2s1)c1cccn(OCc2ccccc2)c1=O | nt | -25
CCOC(=O)[C@@H]1CSC(c2ccc(OC)c(OC)c2)N1 (stereo partly specified) | -2.2 | 13
CC1CCN(S(=O)(=O)c2ccc(Cl)s2)CC1 | nt | 10
CC(=S)c1ncc(C(F)(F)F)cc1N(C)C | -2.2 | nt
C=CCNC(=O)c1cccc2c1-c1ccccc1C2=O | nt | -24
Clc1ccc(-c2nc(-c3ccccc3)no2)cc1 | 0.8 | 2
COc1cc(NC(=O)c2cc(C)oc2C)cc(OC)c1OC | -1.3 | nt
CN(C(=O)Cn1nc(C(F)(F)F)c2c1CCCC2)c1ccccc1 | 0.2 | 8
CC(Sc1nc(N)cc(N)n1)C(=O)O (stereo unspecified) | -5.0 | 7
O=C1Nc2ccccc2N(O)N1c1cc(-c2ccccc2Cl)no1 | -0.6 | 14
CC(=O)N(C)C1=C(O)c2ccccc2C(=O)C1=O | -2.0 | 12
CC(=O)c1ccc(NC(=O)Cn2cnc([N+](=O)[O-])n2)cc1 | -0.6 | nt
CCC(NCC(O)Cn1c2ccccc2c2ccccc21)C(=O)O (stereo unspecified) | 1.1 | 8

(listing goes on)
SMILES | MgrA-DNA mod | Sa helicase inh
COC(=O)Cc1nc(-c2ccc(F)cc2)sc1C | 1.7 | nt
CCOC(=O)c1cccc(C(=O)NC2=NN(c3ccccc3)C(=O)C2)n1 | -0.7 | nt
c1ccc(N2CCN(C3CCc4ccccc4C3)CC2)cc1 (stereo unspecified) | -3.8 | 8
Cc1cc(C)c(-c2cc(-c3ccccc3Cl)n[nH]2)c(O)c1 | -3.2 | nt
S=C1Nc2ccccc2CS1 | nt | 4
CCCC(NC(=O)c1ccccc1)c1nc2ccccc2n1Cc1ccc(C(=O)OC)o1 (stereo unspecified) | nt | 10
COC(=O)c1cc(COC(=O)c2ccccc2Sc2ccccc2C#N)oc1C | nt | -5
O=c1c2oc3ccccc3c2[nH]c(=S)n1-c1ccccc1 | 0.7 | 1
O=C(Nc1cccc(-c2nnco2)c1)c1ccc(C(F)(F)F)cc1 | -1.2 | nt
Cc1ccc(Sc2cnc(N)nc2C)cc1 | 2.0 | nt

Shown tab-delimited: part of the list above
Compound	MgrA-DNA mod	Sa helicase inh
CC(=S)c1ncc(C(F)(F)F)cc1N(C)C	-2.2	nt
C=CCNC(=O)c1cccc2c1-c1ccccc1C2=O	nt	-24
Clc1ccc(-c2nc(-c3ccccc3)no2)cc1	0.8	2
COc1cc(NC(=O)c2cc(C)oc2C)cc(OC)c1OC	-1.3	nt
CN(C(=O)Cn1nc(C(F)(F)F)c2c1CCCC2)c1ccccc1	0.2	8
CC(Sc1nc(N)cc(N)n1)C(=O)O (stereo unspecified)	-5.0	7
O=C1Nc2ccccc2N(O)N1c1cc(-c2ccccc2Cl)no1	-0.6	14
CC(=O)N(C)C1=C(O)c2ccccc2C(=O)C1=O	-2.0	12
CC(=O)c1ccc(NC(=O)Cn2cnc([N+](=O)[O-])n2)cc1	-0.6	nt
CCC(NCC(O)Cn1c2ccccc2c2ccccc21)C(=O)O (stereo unspecified)	1.1	8
COC(=O)Cc1nc(-c2ccc(F)cc2)sc1C	1.7	nt
CCOC(=O)c1cccc(C(=O)NC2=NN(c3ccccc3)C(=O)C2)n1	-0.7	nt
c1ccc(N2CCN(C3CCc4ccccc4C3)CC2)cc1 (stereo unspecified)	-3.8	8
Cc1cc(C)c(-c2cc(-c3ccccc3Cl)n[nH]2)c(O)c1	-3.2	nt
S=C1Nc2ccccc2CS1	nt	4
CCCC(NC(=O)c1ccccc1)c1nc2ccccc2n1Cc1ccc(C(=O)OC)o1 (stereo unspecified)	nt	10
COC(=O)c1cc(COC(=O)c2ccccc2Sc2ccccc2C#N)oc1C	nt	-5

New compounds follow.
SMILES | MgrA-DNA mod | Sa helicase inh
CNC(=S)NC(=O)c1ccccc1 | nt | 15
CCCc1cc(C(=O)Cc2ccccn2)c(O)cc1O | 2.9 | -17
Nc1nc2c(nc(SCc3ccccc3Br)n2C2OC(CO)C(O)C2O)c(=O)[nH]1 (stereo unspecified) | 0.9 | 22
CCCCn1c(=O)c(-[n+]2ccccc2)c([O-])c2ccccc21 | 0.5 | -5
CCCOc1ccc(-c2nc(SCC(N)=O)[nH]c(=O)c2C#N)cc1OC | nt | -28
NC(=O)c1cc(-c2ccco2)nc2ccccc12 | nt | 7
CCOC(=O)C1C(=O)C=C(c2ccc(NS(C)(=O)=O)cc2)CC1c1ccco1 (stereo unspecified) | -9.6 | 7
COc1cc2c(cc1OC)C1C(C)C(=O)C3=C(CSCC3=O)N1CC2 (stereo unspecified) | 0.3 | -16
O=C(Nc1ccc2sccc2c1)c1ccc(S(=O)(=O)N2CCCC2)cc1 | nt | 11
Cc1oc2c(C)c3oc(=O)c4c(c3cc2c1-c1ccccc1)CCCC4 | 1.6 | 2
Cc1ccc(C(CCN)c2ccco2)cc1 (stereo unspecified) | 1.5 | -20
O=C(CCNc1ccc(Cl)c(C(F)(F)F)c1)c1ccccc1 | 3.3 | 5
Cc1cc(S(=O)(=O)N2CCOCC2)ccc1OCC(=O)N1CCOCC1 | -3.0 | -4
CCS(=O)(=O)N1CCC(C(=O)N2CCN(c3ccccc3)CC2)CC1 | nt | 3
COc1cccc2cc(C(=O)c3ccccc3)oc12 | -1.5 | nt
CN(C)C1c2cccc3cccc(c23)C1NS(C)(=O)=O (stereo unspecified) | -0.6 | 1
Cc1ccsc1/C=N/n1cnc2sc(C)c(C)c2c1=O | nt | 1
OCC(O)C(O)C(O)c1cnn(-c2ccccc2)n1 (stereo unspecified) | nt | 16
CCOC(=O)N1CCC(=C(C#N)C(=O)Nc2cc(OC)ccc2OC)CC1 | 0.7 | 3
N/N=C1\CCCc2c1[nH]c1ccc(F)cc21 | 1.2 | 4
CCC1CCCCN1S(=O)(=O)c1ccc2c(c1)CCN2C(C)=O (stereo unspecified) | nt | 16
CCOC(=O)c1cc(NC(=O)Nc2ccc(C)cc2C)c(C)nc1C | -1.3 | -3
Nc1nc(N2CCOCC2)ncc1S(=O)(=O)c1ccc(C(F)(F)F)cn1 | nt | -1
CS/C(Nc1ccc(F)cc1)=C(/C#N)C(=O)c1ccco1 | -1.4 | nt
C=CCOC(=O)C1CC=CCC1C(=O)Oc1ccc(F)cc1F (stereo unspecified) | 1.0 | 3
COc1ccc(/C=C(/CC(=O)O)C(=O)O)cc1 | -0.8 | nt
CCC(=O)c1ccc(OCC(=O)NC2CCCC2)cc1 | nt | 5
CCOC(=O)Cc1csc(-c2ccccc2F)n1 | 0.1 | -1
CCOc1ccc(NC(=O)C2CCN(S(=O)(=O)c3cnc[nH]3)CC2)cc1 | 1.9 | 13
COC(=O)/C=C1\Nc2ccccc2SC1=O | nt | -19
CC(C)(CC(=O)O)CC(=O)NC1CCN(Cc2c(F)cccc2Cl)CC1 | 3.2 | nt
CCOC(=O)CN1CC23C=CC(O2)C(C(=O)N2CCN(c4ccc(F)cc4)CC2)C3C1=O (stereo unspecified) | nt | 17
FC(F)(F)c1cccc(OCc2ccc(-c3ncns3)cc2)c1 | 1.1 | nt
Cc1cccc(N(Cc2ccccc2)C(=O)COc2ccc(-c3nnco3)cc2)c1 | nt | -2
Cn1c(SCc2ccc(C(C)(C)C)cc2)n[nH]c1=S | 3.0 | nt
O=c1[nH]c(=O)n(CCO)c2nonc12 | nt | 16
CCC(C)NC(=O)CN1C(=O)C2C3C=CC(C3)C2C1=O (stereo unspecified) | 1.2 | 5
O=C(c1cccc(S(=O)(=O)NCc2ccccc2)c1)N1CCCC1 | 0.9 | -22
O=C(CSc1nc2ccccc2n1S(=O)(=O)c1ccc(Cl)cc1)NCCc1ccccc1 | 1.1 | 4
COc1ccc(Cl)cc1NCC(=O)N1CCc2ccccc2C1 | 2.5 | -29
O=C(NN1C(=O)c2ccccc2C1=O)C(O)c1ccccc1 (stereo unspecified) | 0.2 | 9
O=C(Nc1ccc(S(=O)(=O)N2CCOCC2)cc1)c1oc(=O)c2ccccc2c1-c1ccccc1 | nt | 13
Cc1ccccc1NCC(=O)NN | 0.2 | -13
O=C(c1ccccc1)N1CCCSc2ccccc21 | -0.4 | 2
COc1ccc(-c2noc(CCC(=O)O)n2)cc1 | 0.2 | nt
CCC12CN3CC(CC)(CN(C1)C3c1ccccc1)C2O (stereo unspecified) | nt | -22
Cc1noc(C)c1COc1ccc(C(=O)OCC(N)=O)cc1 | nt | -12
O=C(Nc1ccccc1)N(Cc1nnc2n1CCCCC2)c1ccc(I)cc1 | 4.6 | -2
Cc1ccc2oc(-c3cc(N=C/C=C/c4ccc5c(c4)OCO5)ccc3O)nc2c1 | 1.4 | 8
CC(=O)Nc1ccc(C(=O)N2CC(C)OC(C)C2)cc1 (stereo unspecified) | -0.8 | 3

Continuation:
SMILES | MgrA-DNA mod | Sa helicase inh
CC(C)(O)C#Cc1ccccn1 | 2.0 | 10
Cc1ccc(C(=O)CSc2nc(C(F)(F)F)cc(=O)n2-c2ccccc2)cc1 | -1.1 | nt
Cc1onc(-c2c(Cl)cccc2Cl)c1C(=O)Oc1ccc(F)cc1Cl | -3.5 | nt
CC1CCN(Cc2cc(Cl)c3cccnc3c2O)CC1 | 2.5 | 2
O=C(CSc1cccc[n+]1[O-])Nc1ccc(F)c(F)c1 | 1.1 | 10
NS(=O)(=O)c1ccc(-c2ccc(/C=C3/SC(=S)N(C4CCS(=O)(=O)C4)C3=O)o2)cc1 (stereo unspecified) | 5.3 | nt
CCS(=O)(=O)c1ccc(O)c(NC(=O)COc2ccc(Cl)c(C)c2)c1 | nt | 31
CCCc1nnc(SCC(=O)N2CCCC2)n1CCOC | 1.1 | 3
O=c1c2ccccc2nc2n1CCO2 | nt | -10
CCOC(=O)CCc1ccc(OCc2c(C)c(C)c(C)c(C)c2C)cc1 | 5.2 | nt
Nn1c(SCC(=O)N2CCc3ccccc32)nncc1=O | nt | -3
Cc1nn(-c2ccccc2)c2sc(C(=O)OCC(=O)Nc3ccccc3)cc12 | nt | 11

Only part of the results is shown, so the mix of outcomes need not match the whole.
